Screening data from PubChem.
miR-21 reporter – raises the signal of a miR-21 reporter; Potency, µM (doses to about 38.3 µM), for the others: at the highest dose reporter change, positive = more light; HeLa miR-21 FLuc reporter, luciferase, 48 h; 340,000 tested, under 10 active; active = well fitted rising curve with a large enough effect; inconclusive = small, poorly fitted or top-dose-only effect; inactive = no such curve, though single readings can be large or run the other way;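 further: % of control where 0% means no effect; miR-21 action dims this reporter so a rising signal means less miR-21 action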
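HeLa cells endogenously expressing miR-21, stably carrying CMV-driven firefly luciferase with a downstream miR-21 binding site, 2000 cells/well. Titrations up to approximately 40 uM, 48 hours; luciferase luminescence read.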
Rango complex inh – Rango-importin beta binding inhibition | Q14974 | Rango CFP/YFP FRET sensor + importin beta, 45 min | Potency, µM (highest dose often 92.2 µM), for inactives: at the highest dose inhibition of complex formation | 340,000 tested, 0.031% active | AID 540263; active = rising FRET ratio curve, often small or poorly fitted; inconclusive = mostly compound fluorescence or quenching in the first reads; inactive = flat curves in all reads;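 further: potency means the concentration at half of the fitted maximal effect; 0% = DMSO wells and 100% = buffer wells lacking importin beta; nearly all actives have a fitted effect of over 15% in size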
Target sequence (Q14974 whole entry, looked up): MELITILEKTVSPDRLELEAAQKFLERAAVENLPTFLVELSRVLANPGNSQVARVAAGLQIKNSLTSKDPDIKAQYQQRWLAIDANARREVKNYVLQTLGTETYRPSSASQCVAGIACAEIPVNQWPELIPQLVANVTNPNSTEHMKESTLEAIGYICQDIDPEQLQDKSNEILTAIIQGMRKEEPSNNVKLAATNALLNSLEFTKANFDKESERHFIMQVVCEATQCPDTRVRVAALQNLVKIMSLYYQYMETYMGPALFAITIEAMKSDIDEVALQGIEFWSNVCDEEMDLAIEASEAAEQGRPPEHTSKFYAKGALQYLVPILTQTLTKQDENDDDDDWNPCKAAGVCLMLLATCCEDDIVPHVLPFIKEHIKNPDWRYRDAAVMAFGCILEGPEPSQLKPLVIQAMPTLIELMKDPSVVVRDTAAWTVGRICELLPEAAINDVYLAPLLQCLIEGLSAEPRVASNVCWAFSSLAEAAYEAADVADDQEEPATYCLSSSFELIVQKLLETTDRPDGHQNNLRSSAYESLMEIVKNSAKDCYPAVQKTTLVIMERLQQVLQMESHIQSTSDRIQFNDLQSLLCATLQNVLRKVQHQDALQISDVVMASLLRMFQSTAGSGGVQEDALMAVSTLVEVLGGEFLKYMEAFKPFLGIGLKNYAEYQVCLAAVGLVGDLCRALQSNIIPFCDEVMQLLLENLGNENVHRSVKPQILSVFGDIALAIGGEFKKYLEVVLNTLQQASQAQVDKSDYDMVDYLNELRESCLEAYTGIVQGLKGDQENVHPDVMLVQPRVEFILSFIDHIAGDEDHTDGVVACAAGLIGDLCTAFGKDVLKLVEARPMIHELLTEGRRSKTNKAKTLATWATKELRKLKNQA
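FRET biosensor Rango (snurportin 1 IBB between N-terminal EYFP and C-terminal Cerulean), 50 nM in PBS/1 mM DTT/0.02% Tween-20/0.1% BSA, preincubated 5 min RT with compound; 0.125 microM importin beta added, 45 min RT, CFP/YFP FRET ratio read.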
Rango release inh – prevents RanGTP from dissociating the Rango-importin beta complex; AID 540253; Biochemical FRET Rango-importin beta, RanGTP-induced dissociation; 340,000 tested, 0.071% active; Potency, µM (doses to about 46.1 µM), without a hit: at the top dose activity change, negative = inhibition; O95149+P62826; active means falling FRET ratio curve, often poorly fitted, with flat reads before Ran was added; inconclusive means other falling curves, or compound fluorescence or quenching; inactive means flat or rising ratio curve;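 further: potency means the concentration at half of the fitted maximal effect; % of control where 0% means no effect; nearly all actives have a fitted effect of over 45% in size; -100% = wells without RanGTP and RCC1; the record marks most hits as doubtful in a second field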
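Rango FRET biosensor (snurportin-1 IBB flanked by N-terminal EYFP and C-terminal CFP10) at 0.1 uM, with 0.25 uM importin beta in PBS, 1mM DTT, 0.02% Tween-20, 0.1% BSA. 0.6 uM Ran, 2mM GTP and 0.2 uM RCC1 were then added for 45 min at room temperature. Inhibition read as loss of FRET rise.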
GLA inh pH 4.5 – alpha-galactosidase A (human) inhibition, pH 4.5 | AID 1467 | 230,000 tested, under 10 active | purified enzyme, 4-MU-alpha-Gal fluorescence, pH 4.5 | activity change, negative = inhibition, % at 105 µM; inconclusive = small, poorly fitted or top-dose-only inhibition, or a rising curve; inactive = flat fitted curve, though single readings scatter; no compound was filed as active;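 further: 0% = full activity with enzyme and -100% = basal without enzyme; dose as in the result columns while the protocol names 77 µM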
* hit, by the source's call; ? = inconclusive; / = no result given; & = joins results of further samples; [ ] = remark or other dose.

| miR-21 reporter | Rango complex inh | Rango release inh | GLA inh pH 4.5 | canonical_smiles |
| --- | --- | --- | --- | --- |
| -1.3% | 3.4% | 15.0% | / | CC(C)CN(CCCNC(=O)CN1C(=O)COc2ccc(S(=O)(=O)N3CCOCC3)cc21)CC(C)C |
| 0.4%&2.5% | -0.3% | -2.5% | / | COc1ccc(C2C(C(N)=O)=C(C)Nc3nc(CCCO)nn32)cc1 (configuration not stated) |
| -19.6% | 1.7% | 1.3% | -10.3 | COCC(C)n1c(SCC(=O)NC(=O)Nc2ccc3c(c2)OCCO3)nc2ccccc2c1=O (configuration not stated) |
| -1.3% | -2.3% | 15.3% | -2.3 | CCn1c(Cc2c(C)[nH]c3ccccc23)n[nH]c1=S |
| -3.1% | -1.8% | 8.3% | -5.9 | O=S(=O)(c1ccc(F)cc1)c1nc(-c2ccccc2F)oc1N1CCCCC1 |
| -1.0%&2.6% | -2.0% | 4.2% | / | COc1ccccc1N1C(=O)N(CC(=O)C(C)(C)C)c2ccccc2S1(=O)=O |
| 0.1% | -0.9% | 7.6% | / | CCC(C)c1ccc(OCC(=O)NNC(=O)C2CCCCC2)cc1 (configuration not stated) |
| 23.8% | 0.2% | -10.3% | -19.7 | O=C(/C=C/c1ccc2c(c1)OCO2)Nc1nc(-c2ccccc2)cs1 |
| -0.7% | -2.7% | -9.4% | -5.3 | CC1=NNC(=O)C1Oc1ccccc1 (configuration not stated) |
| 8.9% | -0.1% | -10.5% | / | CCOc1cccc(-c2c(C(=O)N/N=C(\C)c3ccccn3)nnn2-c2nonc2N)c1 |
| -18.0% | 1.0% | -21.6% | 8.8 | Cc1cc(Nc2cc(F)ccc2C)n2ncnc2n1 |
| 0.3% | -1.4% | 0.9% | -11.4 | O=c1c2ccccc2nc(-c2ccc(Cl)c(Cl)c2)n1O |
| -0.2% | 2.0% | 0.3% | 3.5 | CCOC(=O)C1(CC)CC(CSc2nc3ccccc3[nH]2)OC1=O (configuration not stated) |
| -5.4% | 5.5% | -6.5% | 0.5 | O=C(Nc1ccc([N+](=O)[O-])c(NC(=O)C2CCCO2)c1)C1CCCO1 (configuration not stated) |
| ? | -0.3% | 7.6% | 3.8 | O=C(Nc1ccc(F)cc1)N1CCCN(c2ccc(C(F)(F)F)cn2)CC1 |
| / | 2.2% | -15.3% | / | CCCn1nc(C(=O)Nc2cc(OCC)c(N3CCOCC3)cc2OCC)c2ccccc2c1=O |
| -1.5% | 4.5% | 16.8% | / | Cc1cccc(Cn2c(C)nc3ccc([N+](=O)[O-])cc3c2=O)c1 |
| -0.8% | -0.7% | -10.0% | -5.9 | CCc1ccc(C2c3[nH]c4ccccc4c3CCN2C(=O)c2cc(C)nn2C)cc1 (configuration not stated) |
| / | 0.7% | 8.3% | / | CNC(=S)NNc1nc(-c2ccccc2)c2cc(Cl)ccc2n1 |
| 11.9% | ? | ? | -0.3 | O=C1c2cccc3c([N+](=O)[O-])ccc(c23)C(=O)N1c1ccc(Cl)cn1 |
| -2.0% | -0.2% | -6.3% | -22.6 | COc1ccc(OC)c(C(=O)c2ccc(Cl)cc2)c1 |
| -1.9% | -7.3% | 4.9% | / | O=S1(=O)CCOCCCN1Cc1ccccc1F |
| -2.6% | -0.3% | -5.1% | / | COc1ccc(CNC(=O)CNC(=O)N2CC(=O)Nc3ccccc32)cc1 |
| / | -2.5% | 8.4% | / | COc1ccc(CC(=O)OC(C)C(=O)Nc2c(C)n(C)n(-c3ccccc3)c2=O)cc1OC (configuration not stated) |
| -0.7% | 1.1% | 0.1% | 9.9 | c1ccc2c(N3CCCCC3)nc(N3CCOCC3)nc2c1 |
| -46.4% | ? | -1.7% | / | O=C(NCCc1c[nH]c2ccccc12)c1cc(Cl)c2c(c1)OCO2 |
| -9.4% | 1.5% | 4.4% | -0.9 | O=C(O)CCCN=C1NC2(CCCC2)Cc2ccccc21 |
| -5.7% | / | / | 3.6 | Cc1ccccc1OCC(=O)NCC(=O)N/N=C/C=C/c1ccccc1 |
| / | -1.2% | -9.6% | / | Cc1csc(SCC(=O)N(C)CC(=O)Nc2ccccc2Cl)n1 |
| 0.7% | -0.2% | -7.6% | 0.5 | COc1ccc(NC2CC(=O)N(c3cccc([N+](=O)[O-])c3)C2=O)cc1 (configuration not stated) |
| -8.8% | 0.3% | ? | -1.0 | CC(C)(C)c1ccc(S(=O)(=O)N2CCCCC2)cc1 |
| / | 0.5% | 28.2% | / | O=C(CN1CCCCC1)Nc1ccc(S(=O)(=O)c2ccc(NC(=O)CN3CCCCC3)cc2)cc1 |
| -0.8% | 1.5% | 0.4% | -1.3 | C/C(=N/NC(=O)CSCc1ccc(Cl)cc1)c1cccc(NC(=O)c2ccccc2)c1 |
| ? | 1.6% | 4.2% | -5.1 | CCOc1cc(CNCCO)cc(Br)c1OCc1ccccc1Cl |
| -6.5% | -0.8% | -11.3% | 4.6 | CCC(=O)N(Cc1cc2cc(OC)ccc2[nH]c1=O)c1cc(C)ccc1C |
| / | 3.8% | 12.5% | / | Cc1ccc(C2(C)NC(=O)N(CC(=O)N3CCN(S(=O)(=O)c4cccc([N+](=O)[O-])c4)CC3)C2=O)cc1 (configuration not stated) |
| / | -2.6% | 0.6% | / | CN(CC(=O)NCCc1ccccc1)CC(=O)Nc1cccc(F)c1 |
| -5.5% | 6.0% | 23.4% | -2.8 | S=c1[nH]nc(-c2cnccn2)n1-c1ccccc1 |
| -0.5% | 0.1% | 13.1% | / | CC(=O)N1c2c(cc(Br)cc2S(=O)(=O)N2CCCCC2)CC1C (configuration not stated) |
| -18.6% | ? | ? | -2.5 | N#C/C(=C\c1ccccc1)c1nc2ncccc2[nH]1 |

Among those listed so far, these contain an aryl thioether with sulfur outside any ring:
| miR-21 reporter | Rango complex inh | Rango release inh | GLA inh pH 4.5 | canonical_smiles |
| --- | --- | --- | --- | --- |
| -19.6% | 1.7% | 1.3% | -10.3 | COCC(C)n1c(SCC(=O)NC(=O)Nc2ccc3c(c2)OCCO3)nc2ccccc2c1=O (configuration not stated) |
| -0.2% | 2.0% | 0.3% | 3.5 | CCOC(=O)C1(CC)CC(CSc2nc3ccccc3[nH]2)OC1=O (configuration not stated) |
| / | -1.2% | -9.6% | / | Cc1csc(SCC(=O)N(C)CC(=O)Nc2ccccc2Cl)n1 |

Other entries follow:
| miR-21 reporter | Rango complex inh | Rango release inh | GLA inh pH 4.5 | canonical_smiles |
| --- | --- | --- | --- | --- |
| -12.5% | -8.3% | 1.6% | -0.2 | CC(=O)c1cc(-c2ccc(F)cc2)n(CCC(=O)Nc2cc(C)[nH]n2)c1C |
| / | 3.8% | -1.1% | / | COc1ccc(NS(=O)(=O)c2cccc(C(=O)NCc3ccccc3CN3CCOCC3)c2)cc1 |
| 22.9% | 4.6% | -8.6% | 3.8 | CCOc1cc(Br)c(C=O)cc1OCC |
| 21.5% | 2.6% | 4.2% | -1.2 | O=C(CSc1ncc(C(F)(F)F)cc1Cl)N1CCN(S(=O)(=O)c2ccc(Cl)cc2)CC1 |
| / | -0.1% | -5.7% | / | Cc1nc(Cc2nnc(SCC(=O)N3CCN(c4ccc(F)cc4)CC3)o2)cs1 |
| -20.5% | -0.9% | 23.3% | 4.9 | COc1cc(/C=C/c2ccc3cccc([N+](=O)[O-])c3n2)ccc1OCC#N |
| / | 0.7% | -5.4% | / | CCOC(=O)[C@@H]1[C@H]2COc3cc(OC)ccc3[C@@H]2N2C(=O)N(c3ccccc3)C(=O)[C@]12C |
| -1.1% | 1.1% | -5.9% | -3.7 | O=C(N/C=N/OCc1cccc(C(F)(F)F)c1)N1OC[C@@H]2COc3ccc4ccccc4c3[C@@H]21 |
| -12.8% | -2.5% | 37.4% | -5.3[21.1 µM] | CCCOc1ccc(C(CC(=O)O)NC(=O)CC(c2ccccc2)c2ccccc2)cc1 (configuration not stated) |
| / | 4.6% | -6.2% | / | COc1ccc(C#Cc2c(-c3ccccc3)n(C)c3ccccc23)cc1 |

Shown with each value named: two of the compounds above
COc1ccc(NS(=O)(=O)c2cccc(C(=O)NCc3ccccc3CN3CCOCC3)c2)cc1
- miR-21 reporter = /
- Rango complex inh = 3.8%
- Rango release inh = -1.1%
- GLA inh pH 4.5 = /
CCOc1cc(Br)c(C=O)cc1OCC
- miR-21 reporter = 22.9%
- Rango complex inh = 4.6%
- Rango release inh = -8.6%
- GLA inh pH 4.5 = 3.8

In another format: entries from further up.
Results follow in this order: miR-21 reporter	Rango complex inh	Rango release inh	GLA inh pH 4.5
CC(=O)c1cc(-c2ccc(F)cc2)n(CCC(=O)Nc2cc(C)[nH]n2)c1C
    -12.5%	-8.3%	1.6%	-0.2
COc1ccc(NS(=O)(=O)c2cccc(C(=O)NCc3ccccc3CN3CCOCC3)c2)cc1
    /	3.8%	-1.1%	/
CCOc1cc(Br)c(C=O)cc1OCC
    22.9%	4.6%	-8.6%	3.8

(listing goes on)
| miR-21 reporter | Rango complex inh | Rango release inh | GLA inh pH 4.5 | canonical_smiles |
| --- | --- | --- | --- | --- |
| -13.3% | 0.9% | 2.4% | / | S=C(NCCc1ccccc1)Nc1ccc(N2CCCCC2)cc1 |
| -0.6% | ? | 0.7% | -4.0 | O=C(O)CC12CC3CC(C1)CC(n1ncc(NCc4ccco4)c(Cl)c1=O)(C3)C2 |
| / | -2.6% | -0.3% | / | CC(=O)c1cc2c(cc1NC(=O)CSc1ccc(S(=O)(=O)N(C)C)cn1)OCO2 |
| / | 0.1% | -12.5% | / | CCOc1ccc(C2=CC(=O)C[C@H](c3ccc(OC)cc3)C2)cc1 |
| / | ? | -19.4% | / | O=C(NN=Cc1c(O)ccc2ccccc12)C1CC1 |
| 1.4% | 0.1% | -0.6% | / | Cc1cccc(N(CC(=O)NC2CCCC2)C(=O)CCC(=O)Nc2nc(C)cs2)c1 |
| -2.2% | -2.1% | 5.1% | 7.1 | CN(CC(=O)N1CCCC1)S(=O)(=O)c1cc(Cl)ccc1Cl |
| -7.6% | -0.2% | -2.1% | -8.6 | CN(C)S(=O)(=O)c1cc(C(=O)NCC2CCCO2)c(Cl)cc1Cl (configuration not stated) |
| -1.1% | 0.4% | 2.5% | 0.0 | CN(C)C(=O)CN1CCN(Cc2nc(CC3CC3)no2)CC1 |
| -2.1% | 1.0% | 2.7% | -4.0 | O=c1cc2ncc(-n3cc([N+](=O)[O-])cn3)cn2[nH]1 |
| 0.8%&-5.6% | 0.4% | 2.8% | 1.3&-3.5 | O=C(Cc1cc(=O)[nH][nH]1)N/N=C/C=C/c1ccccc1 |
| 21.7% | -0.9% | -4.5% | / | COc1ccc(-c2noc(N3CCC(C(=O)N(C)c4ccccc4C)CC3)n2)cc1 |
| 0.0% | 0.5% | -2.0% | / | CCOC(=O)N1CCN(C(=O)c2c(-c3ccccc3Cl)noc2C)CC1 |
| / | -4.6% | -14.8% | / | O=C(NCCC1CCCCN1S(=O)(=O)c1ccc(Cl)cc1)C(=O)NCc1ccncc1 (configuration not stated) |
| -4.5% | ? | 10.0% | -7.7 | CCc1ccc(C2CC(c3ccccc3)n3ncnc3N2)cc1 (configuration not stated) |
| 18.1% | -0.8% | 11.9% | -2.4 | CCOc1cc(C(=O)Nc2ccc(N3CCOCC3)cc2)cc(Br)c1OC |
| -0.4% | -0.1% | ? | 2.6 | CCOc1ccc2oc(C(=O)OCC(=O)NC(=O)NC)c(C)c2c1 |
| 17.0% | / | / | -4.4 | O=C(CNc1ccc2c(c1)OCO2)N/N=C\c1cn(Cc2ccc(F)cc2)c2ccccc12 |
| -11.3% | 7.1% | -21.1% | -24.1 | CCOc1ccc(CC(=O)Nc2sc(Cc3ccccc3)c(C)c2C(N)=O)cc1OCC |
| / | 0.7% | -7.1% | / | COc1ccc(NC(=O)CNc2cc(C)ccc2C)cc1S(=O)(=O)N1CCOCC1 |
| -2.6% | -2.0% | 2.5% | -5.4 | COc1ccccc1NC(=O)c1nn(-c2ccc(Cl)cc2)ccc1=O |
| 1.0% | -0.5% | -7.6% | / | Cc1cccc2c1cnn2C(=O)CCC(=O)N1CC(C)CC(C)C1 (configuration not stated) |
| -5.7% | -7.3% | 8.3% | -7.0 | COc1ccc(OC)c(CN(CCCN2CCOCC2)S(=O)(=O)c2ccc(NC(C)=O)cc2)c1 |

These rows are one share of the data; rates above refer to the full screens.
